D2 ag: Beta-Arrestin HTS for Positive Allosteric Modulators of the Human D2 Dopamine Receptor: Agonists | D(2) dopamine receptor (Homo sapiens), P14416 | DiscoveRx PathHunter D2 beta-arrestin, luminescence, 90 min; 100% = 57 uM dopamine signal | activation, % (concentration not given with the values) | actives 0.084% (n = 360,000); in the data active = activation above about 40%; inconclusive = about 15% to 40%; inactive = below about 15%; also: compound concentration not given in the record; the text of the record calls up to 30% inactive
Target sequence (P14416 whole entry, looked up): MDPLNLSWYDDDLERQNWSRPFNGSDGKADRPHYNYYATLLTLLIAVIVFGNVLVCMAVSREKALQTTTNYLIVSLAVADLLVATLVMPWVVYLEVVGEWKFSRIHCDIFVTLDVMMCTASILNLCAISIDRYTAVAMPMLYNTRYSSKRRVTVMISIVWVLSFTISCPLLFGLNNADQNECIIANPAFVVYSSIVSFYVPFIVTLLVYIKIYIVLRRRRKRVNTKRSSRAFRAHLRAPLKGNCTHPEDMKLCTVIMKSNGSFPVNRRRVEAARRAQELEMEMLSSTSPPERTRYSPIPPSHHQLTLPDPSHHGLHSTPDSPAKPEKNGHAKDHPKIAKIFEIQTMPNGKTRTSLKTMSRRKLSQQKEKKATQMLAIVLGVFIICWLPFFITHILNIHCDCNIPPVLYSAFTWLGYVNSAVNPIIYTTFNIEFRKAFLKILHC
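DiscoveRx PathHunter D2 beta-arrestin cells (2,100/well) attached overnight, then compound-stimulated 90 min at 37 C in HBSS/10 mM HEPES/0.1% Tween-20 buffer; beta-galactosidase complementation read by luminescence after 1 h at ambient temperature. Dopamine 57 uM final (EC100) as control.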
Menin MLL FP FL: qHTS Assay for Inhibitors Targeting the Menin-MLL Interaction in MLL Related Leukemias: Competition With Fluorescein Labeled MLL-derived Peptide | Fluorescence polarization, fluorescein-MLL peptide displacement from menin | 290,000 tested, under 10 active | FP activity change, % at 61.4 µM; inconclusive = falling polarisation curve, or a change in total fluorescence; inactive = total fluorescence flat and polarisation flat or rising; no compound was filed as active; the % refers to the polarisation; negative = inhibition;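 also: % of control where 0% means no effect; inhibitors lower the polarisation; unlabelled MLL peptide was the positive control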
PINK1 modulator: A Quantitative High throughput Screen to Identify Chemical Modulators of PINK1 Expression | PINK1 immunofluorescence, high-content cytometry, 24 h | Potency, µM (titrated, usually from 76.6 µM), for inactives: top-dose activation (PINK1 increase), usual class: activators | actives 0.2% (n = 410,000) | AID 624263, 2012; active = well fitted activation curve with a large enough effect; inconclusive = small, poorly fitted or top-dose-only effect; inactive = flat fitted curve, though single readings scatter; cell line not stated here;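 also: potency is read from the fitted curve at half-maximal effect; % of control where 0% means no effect; nearly all actives have a fitted effect of over 65% in size; a mitochondrial uncoupler was the plate control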
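PINK1 protein, normally rapidly degraded, was detected by immunofluorescence after 24 hour compound treatment of a stable cell line. Titration data (5 concentrations) came from laser-scanning cytometry, with CCCP-treated wells as controls.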
Sfp inh: qHTS Assay for Inhibitors of Bacillus subtilis Sfp phosphopantetheinyl transferase (PPTase). actives 3.5% (n = 310,000). Potency, µM, for the others: max response, negative = inhibition, usual class: inhibitors. 4'-phosphopantetheinyl transferase ffp (Bacillus subtilis), Q9F4F7. AID 1490, 2009. Biochemical Sfp PPTase activity, qHTS; active = well fitted inhibition curve with a large enough effect; inconclusive = small, poorly fitted or top-dose-only effect, or another doubt; inactive = no such curve, though single readings can be large or run the other way;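 also: the enzyme is Sfp with the accession as filed and its product quenches rhodamine fluorescence; potency is read from the fitted curve at half-maximal effect; 0% = enzyme reaction without inhibitor and -100% = no enzyme wells; top concentration of the series not given in the record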
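After 15 min at room temperature with compound, 15 nM Sfp received 5 uM rhodamine-CoA plus 12.5 uM BHQ-2-ybbR (50 mM Hepes pH 7.6, 10 mM MgCl2). Rate came from the fluorescence difference over 30 min, ex 525/em 598 nm.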
gsp agonist: qHTS for Agonist of gsp, the Etiologic Mutation Responsible for Fibrous Dysplasia/McCune-Albright Syndrome: qHTS | gsp mutant cells, cAMP HTRF, 30 min; control for the full effect not named in the record | Potency, µM (series often up to 76.9 µM), without a hit: top-dose activation (cAMP increase), hits mostly activators | actives 0.13% (n = 340,000) | AID 624287, 2012; active = well fitted activation curve with a large enough effect; inconclusive = small, poorly fitted or top-dose-only effect, or another doubt; inactive = no such curve, though single readings can be large or run the other way; cell line not stated here;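 also: phosphodiesterase inhibitor Ro 20-1724 added with compounds to block cAMP breakdown; potency is read from the fitted curve at half-maximal effect; nearly all actives have a fitted effect of over 60% in size; about a fifth of the inactives were tested at one dose only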
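Cells stably selected in G418 were plated at 2000/well, grown 16-24 hr, then given compounds in DMSO with the PDE inhibitor […] (300 uM solution added) for 30 min at 37C; cAMP was read by HTRF.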
gsp antagonist: qHTS for Antagonists of gsp, the Etiologic Mutation Responsible for Fibrous Dysplasia/McCune-Albright Syndrome: qHTS. gsp-mutant cells, cAMP HTRF, 30 min; control for the full effect not named in the record. Potency, µM (highest dose often 76.9 µM), for the others: at the top dose activity change, negative = inhibition, most hits filed as inhibitors. actives 0.4% (n = 340,000). AID 624288, 2012; active = falling curve of any shape with a large fitted effect; inconclusive = falling curve, mostly with a smaller effect; inactive = flat or rising curve; cell line not stated here;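 also: intracellular cAMP measured with PDE inhibitor Ro 20-1724 present during compound exposure; potency is read from the fitted curve at half-maximal effect; % is scaled to controls: 0 for no effect and ±100 for the full control effect; nearly all actives have a fitted effect of over 65% in size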
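HTRF cAMP measurement after 30 min RT detection following 30 min, 37C compound treatment alongside […] (added as 300 uM solution) in G418-selected cells seeded at 2000/well and grown 16–24 h.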
ClpP mod: qHTS Assay for Activators of ClpP | ATP-dependent Clp protease proteolytic subunit (Bacillus subtilis (strain 168)), P80244 | Potency, µM (series often up to 57.5 µM), inactives show at the top dose activity change, negative = active | purified B. subtilis ClpP, FRET peptide cleavage, 20 min | AID 651965, 2013 | actives 1.9% (n = 340,000); active = well fitted falling curve with a large enough effect; inconclusive = small, poorly fitted or top-dose-only effect; inactive = no such curve, though single readings can be large or run the other way; also: potency is read from the fitted curve at half-maximal effect; the source files actives as falling curves though it sought activators and does not explain the sign; nearly all actives have a fitted effect of over 65% in size; many hits overshoot -100%
Target sequence (P80244 whole entry, looked up): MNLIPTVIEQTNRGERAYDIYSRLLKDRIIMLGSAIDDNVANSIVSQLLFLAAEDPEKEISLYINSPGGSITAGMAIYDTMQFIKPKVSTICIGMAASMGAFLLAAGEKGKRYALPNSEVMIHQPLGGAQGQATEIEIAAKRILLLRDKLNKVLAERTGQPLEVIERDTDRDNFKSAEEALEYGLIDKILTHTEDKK
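ClpP 10 microg/mL final, pH 8 Tris/KCl buffer with BSA, glycerol, Tween-20; compound pinned in; FRET-FV substrate; RT 20 min; Ex320/Em430; ΔFRET vs ADEP 5.8 microM, DMSO, no enzyme.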
* = called active by the depositor; u = inconclusive; x = no result given; [ ] = another dose, or the depositor's remark. Compounds as they come; any-hit rate near 5.1%.

SMILES | D2 ag | Menin MLL FP FL | PINK1 modulator | Sfp inh | gsp agonist | gsp antagonist | ClpP mod
O=c1[nH]c(NCCO)nc2c1C1(CCCC1)Cc1ccccc1-2 | -4.6 | 4.5 | 0.4% | 7.7% | 14.2% | -19.1% | 32.0%
COc1ccc(CN(C(=O)CN2C(=O)NC3(CCC(C)CC3)C2=O)C(C)Cc2cccs2)cc1 (stereo unspecified) | -2.4 | x | -0.9% | x | u | -11.7% | 1.1%
COC(=O)c1sc(-c2ccc(C(C)(C)C)cc2)cc1NC(=O)c1ccccc1C(=O)O | -0.7 | 3.7 | 11.7% | -1.7% | 17.2% | -24.6% | -8.7%
C=CCN(C(=O)c1cccc(C(F)(F)F)c1)C1(C(=O)Nc2ccccc2)CCN(C(C)C)CC1 | -1.6 | -2.7 | -0.6% | 15.0% | -10.5%[15.4 µM] | -4.0% | x
COC(=O)C1=C(C)C(c2ccc(OC)cc2OC)NC(=O)N1 (stereo unspecified) | -3.4 | -2.1 | -1.0% | 6.0% | 4.8% | 10.7% | 1.1%
Cc1ccc(S(=O)(=O)Nc2nc(C)c(C(=O)NNS(=O)(=O)c3ccccc3)s2)cc1 | -2.1 | 1.8 | 3.6% | 5.6% | 2.6%[15.4 µM] | -6.8% | x
COCCNC(=O)CN(Cc1ccccc1)C(=O)CCC(=O)Nc1nccs1 | -3.3 | -1.6 | 0.4% | 11.3% | -5.7%[15.4 µM] | 4.6% | x
COc1ccc(NC(=O)CN(C)CC(=O)NCC(=O)Nc2ccc(F)cc2)cc1 | 7.7 | x | 0.1% | x | 13.7% | 10.1% | -0.8%
CC(C)NC(=S)N1CCN(S(C)(=O)=O)CC1 | 0.7 | -2.4 | 1.5% | -3.3% | 5.9% | 7.9% | -1.0%
Cc1cnc(C(=O)OCC(=O)NC2CCCC(C)C2C)cn1 (stereo unspecified) | 2.7 | 1.0 | -0.8% | 15.0% | -16.8% | 8.9% | -0.7%
O=C(Nc1ccccc1)Nc1cccc(-c2nnco2)c1 | 0.7 | -6.0 | -1.0% | 8.4% | -24.9% | 0.3% | -2.6%
O=C(CCCc1ccccc1)NC1CCSC1=O (stereo unspecified) | -0.7 | 2.2 | -0.5%[38.3 µM] | 6.0% | -14.0% | -1.7% | -0.3%
CCOc1cc(C2/C(=C(\O)c3cc(C)ccc3C)C(=O)C(=O)N2CCN(C)C)ccc1O (stereo unspecified) | -4.2 | 0.7 | -0.1% | -20.3% | -0.6% | 7.5% | -2.0%
O=[N+]([O-])c1cc(S(=O)(=O)N2CCCC2)ccc1NCCCN1CCOCC1 | -3.3 | -4.8 | 4.7% | 16.6% | -7.5%[15.4 µM] | 2.6% | x
Cc1ccc2nc(CSc3nnc4ccccn34)cc(=O)n2c1 | 0.8 | 1.7 | -1.0% | 16.4% | 15.2%[15.4 µM] | x | x
Oc1ccc(C[C@H]2CN([C@@H](Cc3ccccc3)CN3CCC[C@@H]3CN3C(=S)NC[C@@H]3Cc3ccccc3)C(=S)N2CC2CCCCC2)cc1 | 5.8 | x | 2.9% | x | x | x | -0.5%
Cc1cccc(C(=O)Nc2nnc(Cc3c[nH]c4ccccc34)s2)c1 | 0.1 | 2.6 | x | 2.5% | -17.1% | 6.2% | 3.8%
Cc1ccccc1CN1CCC(CNC(=O)C2CCCN(c3ncnc4c3nc3n4CCCCC3)C2)CC1 (stereo unspecified) | -5.6 | x | 0.2% | 3.1% | 7.4% | -15.7% | -2.8%
CCN(CCCNC(=O)CN(C)S(=O)(=O)c1cccc2nsnc12)c1ccccc1 | -0.4 | 2.1 | -0.2% | 2.1% | 18.0% | -18.1% | -0.7%
CCCCOC(=O)C1=C(C)N(C)C(=O)NC1c1cc2c(cc1Br)OCO2 (stereo unspecified) | 0.3 | x | -0.5% | x | -21.6% | x | -2.1%
Cc1ccc2oc(C(=O)N3CCN(C)C[C@@H]3C(C)C)c(C)c2c1 | -4.8 | -0.1 | 2.7% | 10.9% | 14.9% | 2.1% | -1.3%
COc1cc(/C=C(/C#N)c2ccc(F)cc2)ccc1Oc1ccc([N+](=O)[O-])cn1 | -1.4 | 0.8 | 0.8% | 15.0% | 0.4% | 6.5% | 31.6µM*
COC(=O)c1cc(O)cc(OC)c1Oc1cc(C)cc(O)c1C(=O)O | -5.0 | -5.7 | -0.5% | 56.2µM* | x | -5.4% | 0.6%
Cc1ccc(C(=O)N2CCCC2)cc1Br | -2.4 | 1.4 | 2.6% | 12.3% | 3.2% | 11.2% | 0.3%
COc1ccc(CCCNC(=O)C2CCC(=O)N(CCc3cccc(F)c3)C2)cc1 (stereo unspecified) | 2.7 | x | 1.6% | 14.0% | -0.2%[15.4 µM] | -11.0% | -27.8%
CCOC(=O)C1CCN(C(=O)c2c(C)oc3c2C(=O)c2ccccc2C3=O)CC1 | u | 3.1 | 1.7% | -26.1% | -10.5% | 7.4% | -1.4%
COc1cccc(NC(=O)C2CC(=O)OC23CCOC(C)(C)C3)c1 (stereo unspecified) | 2.9 | 1.5 | 0.8% | 14.4% | -4.6% | 9.2% | -0.5%
CC1CCN(CCC(=O)NN)CC1 | -2.5 | -2.5 | -0.1% | -7.8% | 9.8%[15.4 µM] | 12.5% | x
N#CCC(=O)Nc1ccc(C(=O)N2CCN(S(=O)(=O)c3ccc4ccccc4c3)CC2)cc1 | 4.7 | 15.0 | -0.2% | 2.5% | u | -9.6% | 0.6%
O=C(NCCC(=O)N1CCN(c2ccccn2)CC1)c1ccc(Cl)cc1 | -1.1 | x | 2.2% | x | -6.7% | 3.7% | -18.8%
Cc1nnc(NC(=O)Oc2ccccc2)s1 | -4.3 | 2.5 | x | -6.1% | 0.2% | 1.5% | -0.3%
COc1cccc(-c2nc(N3CCCCC3)c3ccccc3n2)c1O | -2.7 | x | 2.4% | x | -3.6%[15.4 µM] | -21.9% | x
CCOC(=O)C1CCCN(S(=O)(=O)c2cccs2)C1 (stereo unspecified) | -1.2 | 0.3 | 0.1%[38.3 µM] | -3.9% | -33.2% | 5.0% | -0.2%
CNC(=O)N(O)C1N(NC(=O)Nc2ccccc2)C(=S)SC1(C)C (stereo unspecified) | 0.8 | x | 3.1% | x | -8.1%[15.4 µM] | 7.2% | x
Cc1cccc(N(C(=O)CNC(=O)c2cccs2)C(C(=O)NC2CCCC2)c2cccnc2)c1 (stereo unspecified) | -1.2 | 3.0 | 0.8%[38.3 µM] | 30.5%[activator] | 8.0% | -8.9% | -3.5%
Cc1ccc(NC(=O)CN2C(=O)S/C(=C/c3ccc(O)c([N+](=O)[O-])c3)C2=O)cc1C | -5.0 | 5.9 | 0.6% | u | 16.2%[15.4 µM] | u | x
CC(=O)Nc1cc(-c2ccc(C(=O)N3CCOCC3)cc2)cn2c(-c3cccc(C(F)(F)F)c3)cnc12 | -4.5 | x | 6.9% | x | x | x | u
CN=C1S/C(=C\c2ccc(SC)cc2)C(=O)N1C | -3.0 | 5.6 | 1.1% | -17.8% | -38.1%[inhibitor] | -9.3% | x
COc1ccc(OC)c2[nH]c(=O)c(CCNC(=O)c3cc4ccccc4o3)cc12 | 3.8 | -2.1 | 2.2% | 2.0% | -18.7% | u | -3.7%
S=c1[nH]nc(-c2ccncc2)n1/N=C/C(Cl)=C\c1ccccc1 | 2.6 | -1.8 | -0.7% | u | 6.8% | -10.9% | 2.7%
O=C(NCc1ccco1)c1ccc(=O)oc1 | -3.1 | 3.4 | -1.7% | 6.7% | -5.9% | 2.7% | -5.4%
Cc1ccc(NC(=O)CN2CCc3cc4c(cc3C2)OCCCO4)cc1 | 2.1 | x | 0.0% | 6.8% | -0.3% | -4.1% | 0.1%
O=C(CCN1C(=O)c2ccccc2C1=O)Nc1ccc(-c2cn3ccsc3n2)cc1 | 3.4 | -0.4 | 10.2% | -2.5% | 24.5% | -5.0% | 1.5%
Cn1cncc1C#Cc1ccc2cc(C3(O)CCCCC3)oc(=O)c2c1 | -4.9 | x | -0.6% | x | u | 2.8% | u
NS(=O)(=O)c1ccc(CCNC(=O)c2ccc(OCC3CCCO3)cc2)cc1 (stereo unspecified) | -0.7 | -6.2 | 3.6% | -1.0% | -2.8%[15.4 µM] | -15.3% | x
CCCCN(C(=O)c1ccc(S(=O)(=O)N(C)C)cc1)c1ccccc1 | -1.5 | 6.9 | -0.5% | 19.2% | 16.0% | -9.2% | -1.2%
COc1ccc(CC(=O)NCc2nnc(SCC(=O)Nc3cccc(F)c3)n2C)cc1 | -2.6 | 2.6 | 0.1% | 24.9% | -0.4%[15.4 µM] | 1.3% | -6.6%
Cc1ccc(CN2CCN(CC(=O)O)C2=O)cc1 | -0.5 | -1.4 | -0.5% | 15.1% | 2.8%[15.4 µM] | x | x

3 of these compounds, set out differently.
> O=C(NCc1ccco1)c1ccc(=O)oc1
  D2 ag: -3.1 | Menin MLL FP FL: 3.4 | PINK1 modulator: -1.7% | Sfp inh: 6.7% | gsp agonist: -5.9% | gsp antagonist: 2.7% | ClpP mod: -5.4%

> Cc1ccc(NC(=O)CN2CCc3cc4c(cc3C2)OCCCO4)cc1
  D2 ag: 2.1 | Menin MLL FP FL: x | PINK1 modulator: 0.0% | Sfp inh: 6.8% | gsp agonist: -0.3% | gsp antagonist: -4.1% | ClpP mod: 0.1%

> O=C(CCN1C(=O)c2ccccc2C1=O)Nc1ccc(-c2cn3ccsc3n2)cc1
  D2 ag: 3.4 | Menin MLL FP FL: -0.4 | PINK1 modulator: 10.2% | Sfp inh: -2.5% | gsp agonist: 24.5% | gsp antagonist: -5.0% | ClpP mod: 1.5%

Bioassay records (PubChem)
